Source: PubChem BioAssay (ICCB-Longwood Screening Facility, Harvard Medical School)
UCH37 inh = inhibitors of human deubiquitinating enzyme UCH37 | AID 588478 | inhibition, % (concentration not given with the values) | 330,000 tested, 0.33% active | purified proteasome/UCH37, Ub-AMC cleavage fluorescence | Q9Y5K5;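 active = mean of two replicates above 20%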;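 note: 0% = compound-free wells with enzyme and 100% = wells lacking proteasome; stock transfer was 100 nL into about 20 µL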
Target sequence (Q9Y5K5 whole entry, looked up): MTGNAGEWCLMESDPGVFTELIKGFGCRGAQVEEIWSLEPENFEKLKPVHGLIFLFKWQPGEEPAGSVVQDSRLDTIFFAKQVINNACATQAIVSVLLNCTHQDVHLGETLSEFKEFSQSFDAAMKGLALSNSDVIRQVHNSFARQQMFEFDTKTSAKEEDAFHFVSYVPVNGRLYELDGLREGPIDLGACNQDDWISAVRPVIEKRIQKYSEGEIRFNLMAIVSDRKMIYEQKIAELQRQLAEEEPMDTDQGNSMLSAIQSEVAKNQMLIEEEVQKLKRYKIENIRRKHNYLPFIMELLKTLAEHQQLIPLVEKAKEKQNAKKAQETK
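Reagent: Ub-AMC substrate; assay system: Proteasome-associated human UCH37 deubiquitinase; controls: no-proteasome and no-compound wells; read-out: % inhibition of Ub-AMC cleavage fluorescence; timing: 30 min preincubation with enzyme, 25 min cleavage at room temperature; signal: AMC fluorescence from Ub-AMC cleavage, excitation 355 nm, emission 460 nm; buffer or medium: Tris-HCl pH 7.4 plus ovalbumin, ATP-MgCl2, DTT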
Starred values were filed as active, the others as inactive.

UCH37 inh,mol
1.2,C=CCn1c(CNc2ccccc2)nnc1SCC(=O)NN=Cc1ccccc1O
5.7,COc1cc(C=NNC(=O)c2ccc(CSc3nncn3C)cc2)ccc1OCC(=O)N1CC(C)OC(C)C1 (stereo not given)
13,Cc1cc(C(=O)NN=Cc2cccn2C)no1
3.1,COC(=O)c1ccccc1NC(=O)CC(C)=NNC(=O)CC#N
5.9,O=C(NCc1ccncc1)C(=O)NN=Cc1cccnc1
-0.8,CC1=CC(=NNC(=O)c2cccs2)CC(C)(C)C1
-42,COc1ccc(C=NNC(=O)c2ccc3c(c2)OCO3)cc1
1.7,COc1ccc(C=NNC(=O)c2cc(-c3ccccc3OC)nc3ccccc23)cc1COC(C)=O
2.8,Cc1ccccc1-c1nc2ccccc2c(=O)n1N=Cc1ccccc1[N+](=O)[O-]
1.3,Oc1ccc(C=NNc2cccc3cccnc23)c(O)c1
0.3,O=C(C=NO)NCCCN1CCCCCC1
8.1,O=[N+]([O-])c1ccc(C=NN=Cc2ccc([N+](=O)[O-])o2)o1
-112,Cc1ccc(C=NN(C)C2=NS(=O)(=O)c3ccccc32)cc1
11,O=C1C2C(C(=O)N1N=Cc1cc([N+](=O)[O-])c(O)cc1O)C1C=CC2C12CC2 (stereo not given)
0.1,COc1ccccc1C=NNC(=O)CC(=O)NC1CCCCC1
9.3,CC1CCN(CCC(=O)NN=Cc2ccc([N+](=O)[O-])cc2)CC1
5.5,CC(=O)C=C(C)NC(Cc1c[nH]c2ccccc12)C(=O)O (stereo not given)
2.1,CC(=NNC(=O)CNC(=O)c1ccco1)c1ccc(Cl)cc1
4.2,Cc1nnc(NN=Cc2c[nH]c3ccccc23)[nH]c1=O
4.1,O=C(Cc1cccc2ccccc12)NN=Cc1ccc(O)c([N+](=O)[O-])c1
2.9,CC(=NNC(=O)C(c1ccccc1)c1ccccc1)c1ccc(O)cc1
7.6,CSc1sccc1C=NNC(=O)c1ccncc1
2.5,ON=Cc1ccccc1OCc1ccc(Cl)cc1
1.6,CN=c1scc(C)n1N=Cc1ccc2c(c1)OCO2
-0.6,CSc1ccccc1NC(=O)CON=C(C)c1cc2ccccc2o1
-4.7,CCCN(CCC)Cc1c(C(=O)NN=Cc2c[nH]c3ccccc23)nnn1-c1nonc1N
1.8,CCOc1ccc(C=NNC(=O)C(C)N(c2ccc(OC)cc2)S(C)(=O)=O)cc1OCC (stereo not given)
-0.3,O=C(CN(c1ccc(Cl)c(C(F)(F)F)c1)S(=O)(=O)c1ccccc1)NN=Cc1cccc2c1OCCO2
3.5,CC(C)(C)OC(=O)C(C)(C)ON=C(C(=O)O)c1csc(N)n1
6.4,Cc1cccc(N2CN=c3sc(=Cc4ccccn4)c(=O)n3C2)c1
0.2,O=C(NN=Cc1cccc(Cl)c1Cl)Nc1ccccc1
-0.4,O=C(CN1CCCCC1)NN=Cc1cccc(C(F)(F)F)c1
8.2,COc1ccc(N2CC(C(=O)NN=Cc3cc([N+](=O)[O-])ccc3O)CC2=O)cc1 (stereo not given)
0.0,O=C(O)c1cccc(-c2ccc(C=NNC(=O)C3COc4ccccc4O3)o2)c1 (stereo not given)
16,CNC(=O)C1CC(=O)N/C(=N/N=C(C)c2cccs2)S1 (stereo not given)
1.7,CCCOc1ccc(C=NNC(=O)C(C)Sc2ccccn2)cc1OCC (stereo not given)
4.5,CCNC(=S)NN=Cc1ccco1
0.2,O=C(NN=Cc1cccc(NC(=O)c2ccc(Cl)cc2)c1)c1cccc(O)c1
-0.4,CN(C)C=NS(=O)(=O)c1ccc(Cl)cc1
4.3,Cc1nn(C)c(C(=O)NN=Cc2ccccn2)c1[N+](=O)[O-]
-0.6,O=C(NN=Cc1ccccc1)c1ccc2c(c1)OCO2
2.9,CC(=NNC(=O)CNC(=O)C(c1ccccc1)c1ccccc1)c1ccccc1
1.7,Cc1ccccc1C(=O)Nc1ccc(C(=O)NN=Cc2ccc(O)c(Br)c2)cc1
4.7,O=C(CSCc1ccc(Cl)cc1)NN=Cc1ccc(Cl)cc1Cl
13,O=C(O)c1ccc(NN=Cc2ccc3c(c2)OCO3)cc1
5.3,O=c1c(C=NO)c(Nc2ccccc2)nc2ccccn12
15,CCN(N=Cc1ccc(Cl)cc1)c1cc(=O)n(C)c(=O)[nH]1
0.1,CCCC(=NNC(=O)Cc1csc(N2CCOCC2)n1)c1ccccc1
0.9,Nc1ccc(S(=O)(=O)c2ccc(N)nc2)cc1
-141,CCCCC12CN3CCN(CC(C3)C1=NNC(=O)c1ccccc1N)C2
0.9,CSCC[C@H](N)C(=O)NCC1CCC(C(=O)N[C@@H](Cc2ccccc2)C(=O)O)CC1 (stereo not given in full)
1.0,O=C(NN=Cc1ccccc1)c1n[nH]c2c1CCCC2
6.3,COc1ccc(C(=O)NN=Cc2ccc(OC(=O)c3cccc4ccccc34)c([N+](=O)[O-])c2)cc1
1.3,CC(C=NNC(=O)c1ccccc1F)c1ccccc1 (stereo not given)
3.1,CC(C)CC(=O)ON=C1C(=O)N(c2ccccc2)c2ccccc21
6.1,COc1cc(C=Nn2c(-c3cc(C)[nH]n3)n[nH]c2=S)cc(OC)c1O
-224,CCN(CC)c1ccc(C=NNC(=O)Cc2ccc(OC)c(OC)c2)cc1
11,O=C(O)COc1ccccc1/C=C1\SC(=S)N(N=Cc2ccccc2O)C1=O
4.7,Cc1oc(C=NNC(=O)CN(c2ccccc2Cl)S(C)(=O)=O)cc1Br
5.1,C(=NNc1nccs1)c1cccnc1

(list continues)
UCH37 inh,mol
2.2,O=C(COc1cccc2cccnc12)NN=Cc1ccc(O)cc1
3.0,Fc1ccc(NC(=S)NN=Cc2ccc(F)c(F)c2)c(F)c1
-2.3,COc1cc(C=NOCC(=O)Nc2ccc(OC(F)F)cc2)ccc1OCc1ccccc1
2.8,COc1ccc2nc(N=CN(C)C)sc2c1
4.7,CN=c1scc(-c2cc(OC)ccc2OC)n1N=Cc1c(C)[nH]c2ccccc12
1.9,NC(=NS(=O)(=O)c1ccccc1)c1ccc([N+](=O)[O-])cc1
10.0,COc1ccccc1CC1S/C(=N/N=Cc2ccco2)NC1=O (stereo not given)
2.6,COc1cccc(C=NNc2nnc(C)n2N)c1OCc1ccccc1Cl
5.0,COc1ccc(CC(C)=NNC(=S)Nc2ccccc2F)cc1
2.0,CC(=O)ON=C(N)c1cnn2c(C(F)(F)F)cc(C(F)(F)F)nc12
6.0,CCOc1cc(C=NNc2ncc(C)c(=O)[nH]2)ccc1O
5.2,CCc1ccc(OCC(=O)NN=C(C)c2ccc(OC(F)F)cc2)cc1
6.5,O=C(CSc1nc2ccccc2s1)NN=Cc1cc([N+](=O)[O-])ccc1O
6.4,Cc1[nH]n(-c2ccccc2)c(=O)c1C=NNC(=O)C1COc2ccccc2O1 (stereo not given)
-71,COc1ccc(C=NNC(=O)c2cc(=O)[nH]c3ccccc23)cc1OC
-67,O=C(O)c1ccc(NN=Cc2cn(Cc3ccccc3F)c3ccccc23)cc1
4.4,Cc1nc(N)nc(NN=Cc2c(F)cccc2Cl)n1
5.7,FC(F)(F)c1cccc(-n2cccc2C=Nn2cnnc2)c1
-8.4,COCCNC(=S)NN=Cc1c2ccccc2cc2ccccc12
4.4,COc1cc(C=NN=Cc2c[nH]c(=O)c(C#N)c2Nc2ccccc2)ccc1O
3.6,CC(=NNC(=O)c1cccc(S(=O)(=O)Nc2ccccc2Cl)c1)c1ccco1
4.7,Cc1cc(C(=O)NN=Cc2c(CO)cnc(C)c2O)c2ccccc2n1
4.6,COc1ccc(-c2oc(N=CN3CCCC3)c(C#N)c2-c2ccc(OC)cc2)cc1
2.5,O=C(CN1CCSCC1)NN=Cc1ccccc1F
4.4,COc1ccc(C=NNC(=O)Nc2nonc2N)cc1
-0.6,CC1=NNC(=O)C1CC(=O)NN=Cc1ccncc1 (stereo not given)
-3.0,COc1ccc(C=NNc2nc3ccccc3[nH]2)cc1OC
44*,COc1cc(OC)c([N+](=O)[O-])cc1C=NNC(=O)c1ccncc1
-20,O=C(NN=Cc1ccccn1)c1ccc(S(=O)(=O)N2CCCCCC2)cc1
6.5,CN(N=Cc1ccc(Cl)cc1)c1ncc(Cl)cc1C(F)(F)F

Arranged by value in UCH37 inh (lowest first): some entries from above.
UCH37 inh,mol
-141,CCCCC12CN3CCN(CC(C3)C1=NNC(=O)c1ccccc1N)C2
1.3,Oc1ccc(C=NNc2cccc3cccnc23)c(O)c1
2.5,O=C(CN1CCSCC1)NN=Cc1ccccc1F
4.7,O=C(CSCc1ccc(Cl)cc1)NN=Cc1ccc(Cl)cc1Cl
5.3,O=c1c(C=NO)c(Nc2ccccc2)nc2ccccn12
6.4,Cc1[nH]n(-c2ccccc2)c(=O)c1C=NNC(=O)C1COc2ccccc2O1 (stereo not given)
8.1,O=[N+]([O-])c1ccc(C=NN=Cc2ccc([N+](=O)[O-])o2)o1

Random excerpt: two records from the list, in no set order.
UCH37 inh,mol
-20,O=C(NN=Cc1ccccn1)c1ccc(S(=O)(=O)N2CCCCCC2)cc1
1.9,NC(=NS(=O)(=O)c1ccccc1)c1ccc([N+](=O)[O-])cc1

Compounds above containing a CF3 group:
UCH37 inh,mol
-0.3,O=C(CN(c1ccc(Cl)c(C(F)(F)F)c1)S(=O)(=O)c1ccccc1)NN=Cc1cccc2c1OCCO2
-0.4,O=C(CN1CCCCC1)NN=Cc1cccc(C(F)(F)F)c1
2.0,CC(=O)ON=C(N)c1cnn2c(C(F)(F)F)cc(C(F)(F)F)nc12
5.7,FC(F)(F)c1cccc(-n2cccc2C=Nn2cnnc2)c1
6.5,CN(N=Cc1ccc(Cl)cc1)c1ncc(Cl)cc1C(F)(F)F

Going on with the list.
UCH37 inh,mol
6.0,COc1ccc(C=NNC(=O)c2cccc(Br)c2)cc1CN1CCOCC1
1.0,CCCCC12CN3CCN(CC(C3)C1=NNC(=O)Nc1ccccc1)C2
5.6,COc1cc(Br)cc(C=Nc2ncn[nH]2)c1O
3.9,Cc1nn(-c2ccccc2)c(Cl)c1C=NNC(=O)c1ccccc1F
-1.1,CC(=NNC(=O)c1ccccc1O)c1ccc(NC(=O)c2ccccc2)cc1
3.5,COc1ccc(C=NOCC(=O)Nc2cc(C)on2)cc1OC
9.1,CN1C(=O)C(CC(=O)O)SC1=NN=Cc1ccc(O)cc1O (stereo not given)
-0.5,NC(=NOC(=O)c1ccc(Br)cc1)c1cccc([N+](=O)[O-])c1
7.3,CN=c1scc(C)n1N=Cc1ccc(O)cc1
3.6,Cc1ccc(NC(=O)CCC(=O)NN=Cc2cccs2)cc1
0.1,CC(=NOCC(=O)OC(C)C(=O)Nc1ccc(C(N)=O)cc1)c1ccc2c(c1)OCO2 (stereo not given)
4.8,O=[N+]([O-])c1ccc(-n2cccc2C=NNc2nc(N3CCCCC3)nc(N3CCCCC3)n2)cc1
3.8,CC(=NNC(=O)c1cccc(S(=O)(=O)N2CCOCC2)c1)c1cc2ccccc2o1
-2.6,O=C(NN=Cc1ccc[nH]1)c1ccccc1OCc1ccc(F)cc1
3.5,O=C(CNC(=O)c1ccccc1)NN=Cc1ccc([N+](=O)[O-])s1
-0.3,NC(=O)COc1ccc(C=NNS(=O)(=O)c2ccccc2)cc1
-0.6,CC(=NNC(=O)C1COc2ccccc2O1)c1ccc(N2CCOCC2)cc1 (stereo not given)
-21,COc1cccc(C=NNc2cc(C)nc(-c3ccccc3O)n2)c1O
0.3,O=C(CNC(=O)c1cccs1)NN=Cc1c(F)cccc1Cl
2.8,CCC(CC)NC(=O)CON=Cc1ccc(Cl)cc1Cl
4.1,CN(C)N=Cc1ccc(OS(=O)(=O)c2ccccc2)cc1
2.3,Oc1c(Br)cc(Br)cc1C=Nc1nc2c(s1)CCCC2
4.8,CCOc1ccc(S(=O)(=O)NN=C(C)c2ccc(Cl)c(Cl)c2Cl)cc1
0.8,COc1cc(C=NNC(=O)CNC(=O)c2cccc([N+](=O)[O-])c2)ccc1O
6.8,COc1ccc(C=NNc2nnc(C)n2N)cc1OC(C)=O
-13,CCCC=NNC(=O)c1ccccc1O
2.3,O=C(NN=Cc1ccncc1)c1ccc(NC(=O)c2cccc(Cl)c2)cc1
-73,CCCC=NNC(=O)c1cc(Br)ccc1O
4.9,S=C(N=c1sccn1Cc1ccccc1)NC1CC1
5.7,COc1ccc(S(=O)(=O)N=C2C=CC(=O)C(C)=C2C)cc1

UCH37 inh, what is marked active above.
UCH37 inh,mol
44*,COc1cc(OC)c([N+](=O)[O-])cc1C=NNC(=O)c1ccncc1

Next entries.
UCH37 inh,mol
3.7,COc1cc(C=NNS(=O)(=O)c2ccc(C(C)(C)C)cc2)cc([N+](=O)[O-])c1O
3.8,CCc1ccc(OCC(=O)NN=Cc2ccco2)c([N+](=O)[O-])c1
4.2,C/C(C=NNC(=O)CCn1nnc2ccccc21)=C\c1ccccc1
7.0,O=C(NN=Cc1ccco1)c1cc(-c2ccc(Cl)cc2)n[nH]1
2.0,CC(=NN=C(N)N)c1cccc([N+](=O)[O-])c1
6.4,O=C(NN=C/C=C\c1ccc([N+](=O)[O-])cc1)c1cccnc1
0.0,CCOC(=O)c1sc(NN=Cc2cccc(C)c2)nc1C
5.3,S=c1[nH]ncn1N=Cc1cccc(Oc2ccccc2)c1
1.7,Cc1nn(-c2ccccc2)c(N2CCCC2)c1C=NO
3.6,Fc1ccc(C=Nn2c(COc3ccccc3)n[nH]c2=S)cc1
0.4,CCOc1[nH]c(N=Cc2ccco2)c(C#N)c1C#N
-0.2,COC(=O)NN=CC1=CCC2CC1C2(C)C (stereo not given)
19,O=C(O)CC1S/C(=N/N=Cc2ccc(-c3ccc(Cl)c([N+](=O)[O-])c3)o2)NC1=O (stereo not given)
0.8,Cc1cccc(C(=O)Nc2cccc(C(=O)NN=Cc3cccc(C)n3)c2)c1

An excerpt; count on the stated rates, not on these rows.
